# GIV Gai3 FP = inhibitors of GIV GBA-motif binding to rat Galpha-i3. P08753. Galpha-i3/FITC-GIV peptide fluorescence polarization, 90 min; active compounds read low; scaled: aluminum fluoride 0%, vehicle 100%. percent of control (FP), % (no concentration beside the values). 0.42% of 210,000 active. AID 1224905;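 active means replicate mean at 85% of control or lower, very high polarization wells dropped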;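 further: wells of about 15 µL received 100 nL stock; the first replicate is given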
# Target sequence (P08753 whole entry, looked up): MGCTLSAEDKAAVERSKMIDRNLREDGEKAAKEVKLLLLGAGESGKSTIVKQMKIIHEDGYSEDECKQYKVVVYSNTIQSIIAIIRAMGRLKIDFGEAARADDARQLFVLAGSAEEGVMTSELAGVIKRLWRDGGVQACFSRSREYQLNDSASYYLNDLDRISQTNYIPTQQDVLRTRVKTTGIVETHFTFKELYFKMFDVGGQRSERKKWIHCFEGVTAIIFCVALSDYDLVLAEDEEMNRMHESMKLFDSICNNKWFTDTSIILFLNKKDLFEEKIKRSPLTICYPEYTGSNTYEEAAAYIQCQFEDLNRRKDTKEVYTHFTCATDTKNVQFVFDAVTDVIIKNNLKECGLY
# HCMV UL50-53 inh = inhibitors of HCMV UL50-UL53 nuclear egress complex interaction; 0.15% of 190,000 active; inhibition, % (concentration not given with the values); HTRF UL50-UL53 interaction, normalized percent inhibition;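 active means both replicates at 50% or more, plus weaker picks with an unusually low signal ratio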;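 further: stock transfer was 100 nL into about 20 µL; 0% = negative control wells and 100% = wells with untagged competitor protein; inactives centre near -12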
# Sa growth inh = blocks Staphylococcus aureus growth; 0.53% of 170,000 active; S. aureus RN4220 growth, OD600, 20 h, 42 °C; active compounds read low; relative growth, % (test concentration not listed);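 active means growth at 42 °C up to 50% and 20 or more points under that at 30 °C, or under 10% at both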;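 further: 300 nL library stock went into each well; scaled to the means of positive and negative controls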
# Sa growth inh second temp = also measured in Sa growth inh; calls as there; relative growth, %; measured here: growth at 30 °C;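 optical density after 20 h as mean of two plates; 100% = untreated growth and lower means inhibition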
# * marks the source's active call; other numbers are inactive results; . = no result given; & = joins results of further samples.
# Values run as follows: GIV Gai3 FP | HCMV UL50-53 inh | Sa growth inh | Sa growth inh second temp
- O=C(Cn1cnc(S(=O)(=O)N2CCCC2)c1)Nc1ccccc1
  109 | . | 111 | 101
- O=C1S/C(=C/c2ccccc2F)C(=O)N1CN1CCCCC1
  103 | . | 97 | 39
- N#Cc1cccc(OC(=O)c2ccccc2)c1
  102 | 1 | 102 | 100
- CN1CCC2(N3CCOCC3)C(C1)N=NN2c1cc(C(F)(F)F)cc(C(F)(F)F)c1 (stereo not drawn)
  101 | -32 | 86 | 89
- O=c1c(C=Nc2ccccc2)c(O)c2cccc3c2n1CCC3
  101 | -2 | 89 | 93
- N#C/C(=C/Nc1ccc(I)cc1)c1nc2ccccc2o1
  105 | -32 | 90 | 90
- CN(C)C(=O)NCc1cccnc1
  104 | -28 | 92 | 93
- CC(NC(=O)c1ccc2c(=O)nc3c(-c4ccccc4)n[nH]n3c2c1)c1ccccc1 (stereo not drawn)
  128 | -27 | . | .
- CCOc1ccc(-c2nonc2NC(=O)c2ccco2)cc1
  98 | 2 | 80 | 86
- COc1ccc(NC(=O)N(Cc2c[nH]c3ccccc23)C(C)C)c(OC)c1
  106 | -17 | 101 | 92
- O=C(NCCC1=CCCCC1)c1cc2cc(Cl)ccc2oc1=O
  . | -11 | 106 | 85
- O=C(C1CCN(S(=O)(=O)c2cccc3nonc23)CC1)N1CCN(c2cccc(Cl)c2)CC1
  101 | . | 109 | 88
- CCc1ccc(/C=C2\Sc3ccccc3N(CC(=O)O)C2=O)cc1
  102 | . | 100 | 56
- O=C(O)CCC(=O)c1ccc2c(c1)CCCC2
  . | -1 | 99 | 92
- S=c1[nH]nc(Cc2ccsc2)n1Cc1ccccc1
  105 | -27 | 92 | 75
- CN1C(=O)CC(N2CCN(Cc3ccccc3)CC2)C1=O (stereo not drawn)
  105 | -2 | 100 | 112
- Nc1nc2cc(S(=O)(=O)N3CCOCC3)ccc2o1
  . | -3 | 97 | 92
- CC(=O)N(Cc1cccnc1)Cc1cc2cc3c(cc2n2nnnc12)OCO3
  101 | -4 | 95 | 88
- COCC(C)NC(=O)C1CC(c2ccc(F)cc2)=NO1 (stereo not drawn)
  100 | 1 | 110 | 88
- CCOc1ccc(C(=O)c2oc3ccccc3c2NC(=O)c2cc(-c3ccccc3)on2)cc1
  102 | -14 | 109 | 86
- NC(=O)c1sccc1Cl
  99 | -25 | 94 | 88
- COc1ccc(-c2n[nH]c(CCNC(=O)Cc3cccc(OC)c3)n2)cc1
  100 | -10 | . | .
- O=C(Nc1ccccc1)C(=S)NC1CCCC1
  103 | -5 | 96 | 105
- CC(C)COC(=O)COc1ccc2c(=O)c(-c3ccccc3)coc2c1
  96 | -2 | 93 | 91
- CCOC(=O)C1=C(O)/C(=C/c2cccs2)SC1=NC(=O)c1ccc(C)cc1
  120 | . | 103 | 78
- NC(=S)c1cnn2c(C(F)(F)F)cc(C(F)(F)F)nc12
  105 | -82 | 87 | 78
- CC[C@@H](C)[C@H]1O[C@]2(CC[C@@H]1C)C[C@@H]1C[C@@H](C/C=C(\C)[C@@H](O[C@H]3C[C@H](OC)[C@@H](O[C@H]4C[C@H](OC)[C@@H](O)[C@H](C)O4)[C@H](C)O3)[C@@H](C)/C=C/C=C3\CO[C@@H]4[C@H](O)C(C)=C[C@@H](C(=O)O1)[C@]34O)O2
  99 | -32 | . | .
- CCN(CC)S(=O)(=O)c1ccc2c(c1)N(CC(=O)NC)C(=O)C1CCCCN21 (stereo not drawn)
  99 | -10 | . | .
- Cc1ccc(N2CC34C=CC(O3)C(C(=O)O)C4C2=O)cc1 (stereo not drawn)
  100 | . | 110 | 81
- O=C(O)c1ccccc1SCc1ccc2c(c1)OCO2
  . | -36 | 110 | 97
- O=C(Nc1ccc(Br)cc1)c1ccc(Br)c(S(=O)(=O)N2CCCCC2)c1
  103 | . | 105 | 83
- CCOc1ccccc1CNC(=O)Nc1cn(CC(C)C)c(=O)c2ccccc12
  95 | . | 85 | 86
- O=C(O)c1ccc(NC(=O)C2CC(=O)N(Cc3ccccc3)C(=Nc3ccc(Cl)cc3)S2)cc1 (stereo not drawn)
  104 | -25 | . | .
- COc1ccc(NC(=O)CN(C)S(=O)(=O)c2ccc3c(c2)CCCN3C(C)=O)cc1
  103 | . | 102 | 98
- O=C1CC(c2ccccc2F)C2=C(CC(c3ccc(F)cc3)CC2=O)N1 (stereo not drawn)
  98 | . | 87 | 85
- CN(C)c1ccc(NS(=O)(=O)c2ccc(-c3csnn3)cc2)cc1
  100 | -17 | 96 | 82
- Cc1cc(S(=O)(=O)NCCC2=CCCCC2)ccc1-n1cnnn1
  107 | -4 | 123 | 102
- CCc1ccc(-c2nc3c(c(SCc4ccccc4F)n2)Cc2c(CO)cnc(C)c2O3)cc1
  101 | . | 82 | 89
- Cc1ccc(Cl)cc1N1CCN(C(=O)c2ccc(CS(=O)(=O)c3ccc(Br)cc3)o2)CC1
  106 | 22 | 115 | 94
- COc1ccc(OCCc2nnc(N)s2)cc1
  103 | -2 | 108 | 88
- Cc1ccc(CCNC(=O)c2ccc3nc(N4CCC(C)CC4)sc3c2)cc1
  105 | -22 | 102 | 88
- Cc1ccc(CNC(=O)c2ccc3nc[nH]c3c2)cc1
  108 | -4 | 114 | 103
- Cc1ccccc1/C=N/NC(=O)Cc1cn2ccsc2n1
  . | -24 | 95 | 91
- c1ccc(Nc2ccc(-n3ccnc3)nn2)cc1
  101 | . | 93 | 77
- Nc1cc(N)c2cc(-c3ccccc3)oc2c1
  81* | 95* | 96 | 35
- COC(=O)c1cccc(CN2C(=O)SC(Nc3ccccc3C)C2=O)c1 (stereo not drawn)
  103 | 17 | 104 | 101
- CN1CCN(C(=O)CNS(=O)(=O)c2ccccc2)CC1
  . | -10 | 96 | 81
- CC1CC(=O)Nc2cc(S(=O)(=O)N3CCN(c4ncccn4)CC3)ccc2S1 (stereo not drawn)
  104 | 6 | . | .
- CCCCC(=O)N1CCN(c2ccc(C(=O)CC)cc2F)CC1
  103 | -25 | 92 | 79
- CCCCN(Cc1cc2ccccc2[nH]c1=O)S(=O)(=O)c1ccccc1
  106 | 1 | 91 | 74
- CC1(C)Cc2c(c(N3CCCCC3)nc3sc(C#N)c(N)c23)CO1
  104 | 0 | 97 | 97
- O=C(c1cccc([N+](=O)[O-])c1)N1c2nc(-c3ccco3)nn2C2(CCCCC2)[C@@H]2CCCC[C@@H]21
  98 | -27 | 105 | 86
- Cc1ccc(-c2nn(C)c(=O)c3ccccc23)cc1CNC(=O)CSc1nc2ccccc2s1
  104 | . | 99 | 88
- O=C(NC1CCCCC1)C1CCCN(c2nc3ncccc3n3cccc23)C1 (stereo not drawn)
  108 | 10 | . | .
- CCOC(=O)C1C(=O)N(C(=O)c2cncc(Br)c2)CC1c1ccccc1 (stereo not drawn)
  104 | -20 | 86 | 85
- O=C(NCCS(=O)(=O)N1CCN(c2ccc(F)cc2)CC1)C1CC(=O)N(c2ccccc2)C1 (stereo not drawn)
  104 | . | 88 | 92
- Cc1ccc2nc(-c3ccsc3)c(Nc3ccc(C(C)C)cc3)n2c1
  106 | 8 | 98 | 100
- CCn1c(=O)n(CC)c2cc(N3CCCC3)c(NC(=O)Nc3cc(C)cc(C)c3)cc21
  101 | . | 88 | 88
- CCSc1ncc(Cl)c(C(=O)N(Cc2ccc(OC)cc2)C2CCS(=O)(=O)C2)n1 (stereo not drawn)
  106 | -15 | . | .
- O=C(CCC1CCCC1)Nc1ccc2c(c1)OCO2
  103 | 1 | 92 | 87

# (next part)
# Values run as follows: GIV Gai3 FP | HCMV UL50-53 inh | Sa growth inh | Sa growth inh second temp
- CC(C)CCn1c(=O)c2ccc(C(=O)NCC(C)C)cc2n2c(=O)n(CC(=O)NC(C)(C)C)nc12
  108 | -40 | . | .
- COc1ncnc2c(C)csc12
  102 | -24 | 86 | 82
- COc1cccc(CNC(=O)CN(c2ccc(C)cc2)S(=O)(=O)N(C)C)c1OC
  100 | -44 | 96 | 83
- Cn1c(Cl)c(CN)c2ccccc21
  . | 4 | 89 | 96
- Cc1onc(-c2c(Cl)cccc2Cl)c1C(=O)NCCSC1=NCCN1
  100 | . | 105 | 81
- CCNc1nc(N)c(C(=O)c2ccc(Cl)s2)s1
  98 | -69 | 98 | 99
- Cc1sc(-c2noc(C3CCC3)n2)cc1S(=O)(=O)N1CCCC(C(=O)N2CCCCC2)C1 (stereo not drawn)
  107 | -14 | . | .
- COC(=O)c1ccc(/C=C(\C#N)C(=O)NC2CCCCC2)cc1
  . | -25 | 95 | 99
- CCCn1c(SCCO)nc2ccccc21
  100 | -1 | 104 | 96
- CCOC(=O)C1=C(C)N=c2s/c(=C/c3ccc(OC(C)=O)cc3OC(C)=O)c(=O)n2C1c1ccccc1Cl (stereo not drawn)
  101 | -13 | . | .
- O=C(NCc1ccc(F)cc1)c1c(O)nc2ccccn2c1=O
  105 | -11 | 79 | 58
- S=C(Nc1ccccc1)N1CCCN1c1ccccc1
  103 | . | 95 | 87
- CN(C)CCNCc1ccc(-c2ccc(Cl)cc2Cl)o1
  104 | -17 | . | .
- COc1cccc2c(=O)c(NC(=O)N3CCCC(C(N)=O)C3)c[nH]c12 (stereo not drawn)
  98 | -30 | . | .
- Brc1cccc(-c2nnc3sc(CNCc4ccc5c(c4)OCO5)cn23)c1
  111&111 | -24 | 95 | 78

# 24 entries out of the list, ordered by formula weight, largest number first.
# Values run as follows: GIV Gai3 FP | HCMV UL50-53 inh | Sa growth inh | Sa growth inh second temp
- CCOC(=O)C1=C(C)N=c2s/c(=C/c3ccc(OC(C)=O)cc3OC(C)=O)c(=O)n2C1c1ccccc1Cl (stereo not drawn)
  101 | -13 | . | .
- Cc1ccc(-c2nn(C)c(=O)c3ccccc23)cc1CNC(=O)CSc1nc2ccccc2s1
  104 | . | 99 | 88
- CC(C)CCn1c(=O)c2ccc(C(=O)NCC(C)C)cc2n2c(=O)n(CC(=O)NC(C)(C)C)nc12
  108 | -40 | . | .
- Cc1sc(-c2noc(C3CCC3)n2)cc1S(=O)(=O)N1CCCC(C(=O)N2CCCCC2)C1 (stereo not drawn)
  107 | -14 | . | .
- O=C(NCCS(=O)(=O)N1CCN(c2ccc(F)cc2)CC1)C1CC(=O)N(c2ccccc2)C1 (stereo not drawn)
  104 | . | 88 | 92
- O=C(c1cccc([N+](=O)[O-])c1)N1c2nc(-c3ccco3)nn2C2(CCCCC2)[C@@H]2CCCC[C@@H]21
  98 | -27 | 105 | 86
- CCSc1ncc(Cl)c(C(=O)N(Cc2ccc(OC)cc2)C2CCS(=O)(=O)C2)n1 (stereo not drawn)
  106 | -15 | . | .
- Brc1cccc(-c2nnc3sc(CNCc4ccc5c(c4)OCO5)cn23)c1
  111&111 | -24 | 95 | 78
- COc1cccc(CNC(=O)CN(c2ccc(C)cc2)S(=O)(=O)N(C)C)c1OC
  100 | -44 | 96 | 83
- CCOC(=O)C1C(=O)N(C(=O)c2cncc(Br)c2)CC1c1ccccc1 (stereo not drawn)
  104 | -20 | 86 | 85
- Cc1onc(-c2c(Cl)cccc2Cl)c1C(=O)NCCSC1=NCCN1
  100 | . | 105 | 81
- O=C(NC1CCCCC1)C1CCCN(c2nc3ncccc3n3cccc23)C1 (stereo not drawn)
  108 | 10 | . | .
- CCCCN(Cc1cc2ccccc2[nH]c1=O)S(=O)(=O)c1ccccc1
  106 | 1 | 91 | 74
- Cc1ccc2nc(-c3ccsc3)c(Nc3ccc(C(C)C)cc3)n2c1
  106 | 8 | 98 | 100
- COc1cccc2c(=O)c(NC(=O)N3CCCC(C(N)=O)C3)c[nH]c12 (stereo not drawn)
  98 | -30 | . | .
- CC1(C)Cc2c(c(N3CCCCC3)nc3sc(C#N)c(N)c23)CO1
  104 | 0 | 97 | 97
- CCCCC(=O)N1CCN(c2ccc(C(=O)CC)cc2F)CC1
  103 | -25 | 92 | 79
- COC(=O)c1ccc(/C=C(\C#N)C(=O)NC2CCCCC2)cc1
  . | -25 | 95 | 99
- CCNc1nc(N)c(C(=O)c2ccc(Cl)s2)s1
  98 | -69 | 98 | 99
- S=C(Nc1ccccc1)N1CCCN1c1ccccc1
  103 | . | 95 | 87
- O=C(CCC1CCCC1)Nc1ccc2c(c1)OCO2
  103 | 1 | 92 | 87
- CCCn1c(SCCO)nc2ccccc21
  100 | -1 | 104 | 96
- Cn1c(Cl)c(CN)c2ccccc21
  . | 4 | 89 | 96
- COc1ncnc2c(C)csc12
  102 | -24 | 86 | 82

# (cont.)
# Values run as follows: GIV Gai3 FP | HCMV UL50-53 inh | Sa growth inh | Sa growth inh second temp
- Cc1nc2ccc(S(=O)(=O)N3CCCCC3)cc2s1
  104 | -18 | 99 | 75
- Cc1ccc(NC(=O)CN2C(=O)c3cccnc3Sc3ccccc32)c(Br)c1
  102 | -32 | 100 | 82
- Cc1cc(C)n2nc(-c3ccc(Cl)cc3)nc2n1
  105 | 2 | 115 | 91
- O=C1/C(=C/c2ccco2)CCC1C1CCCC1 (stereo not drawn)
  103 | 3 | 91 | 93
- O=C(NCc1ccccc1Cl)c1nc2c(nnn2CC2CCCO2)c(=O)[nH]1 (stereo not drawn)
  100 | -4 | 96 | 84
- Nc1nnc(CSCc2ccccc2)s1
  109 | -2 | 103 | 99
- COc1ccccc1CNC(=O)C(=O)NCC(c1ccco1)S(=O)(=O)c1ccc(F)cc1 (stereo not drawn)
  105 | . | 113 | 96
- C=CCn1c(=NC(=O)c2ccco2)sc2cccc(OCC)c21
  99 | -34 | 101 | 78
- CC(=O)Nc1ccc(Nc2nc3ccc(C)cc3n3nnnc23)cc1
  108 | . | 116 | 83
- Cc1ccnc2nc(NC(=O)c3ccccc3Cl)nn12
  102 | -18 | 98 | 94

# High-throughput results as filed in PubChem.
